Compound activity (PubChem)
NS1 function inh: qHTS Assay for Inhibitors of Influenza NS1 Protein Function. Potency, µM (titrated, usually from 46.1 µM), without a hit: at the highest dose activity, positive = more growth. hit rate 0.4% among 270,000. S. cerevisiae slowed by influenza A NS1, growth recovery by OD600. AID 2326, 2010; active means well fitted rising curve with a large enough effect; inconclusive means small, poorly fitted or top-dose-only effect; inactive means no such curve, though single readings can be large or run the other way; note: nearly all actives have a fitted effect of over 50% in size
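Recovery from NS1-induced slow growth read by OD600 in budding yeast switched to galactose assay medium (pH 6.0, -URA) at 1:100 dilution. Compound 23 nl per well; the matching strain lacking NS1 serves as control.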
Cruzain noTriton: qHTS Assay for Promiscuous and Specific Inhibitors of Cruzain (without detergent); Cruzipain (Trypanosoma cruzi), P25779; purified cruzain, Z-FR-AMC fluorescence, no detergent; Potency, µM, for the others: max response, negative = inhibition, hits mostly inhibitors; hit rate 2.3% among 200,000;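 note: plate controls were enzyme without inhibitor for no effect and buffer without enzyme for full effect; nearly all actives have a fitted effect of over 40% in size; top concentration of the series not given in the record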
Target sequence (P25779 123-467 limits assumed): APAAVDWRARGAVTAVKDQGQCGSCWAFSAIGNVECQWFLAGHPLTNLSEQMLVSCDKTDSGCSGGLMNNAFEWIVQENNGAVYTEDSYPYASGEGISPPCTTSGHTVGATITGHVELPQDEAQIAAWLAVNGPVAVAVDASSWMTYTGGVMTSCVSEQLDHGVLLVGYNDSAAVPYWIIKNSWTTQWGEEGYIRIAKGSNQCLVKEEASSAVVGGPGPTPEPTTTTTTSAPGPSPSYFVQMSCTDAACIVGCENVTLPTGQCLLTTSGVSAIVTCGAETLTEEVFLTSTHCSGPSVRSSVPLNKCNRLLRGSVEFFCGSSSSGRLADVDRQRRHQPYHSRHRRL
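Detergent-free condition (0.00005% Triton X-100) in acetate buffer pH 5.5 with DTT. 1.5 nM enzyme and compound were pre-mixed 15 min, then 2 uM Z-FR-AMC substrate added; reaction progress from fluorescence change between first and third reads (60 s).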
SARS PLP yeast: qHTS of Yeast-based Assay for SARS-CoV PLP; hit rate 0.19% among 330,000; Potency, µM (top dose mostly 32.9 µM), inactives show at the top dose activity, positive = growth rescue; S. cerevisiae expressing SARS-CoV PLpro, growth rescue; control for the full effect not named in the record; AID 485353, 2010; active means well fitted rising curve with a large enough effect; inconclusive means small, poorly fitted or top-dose-only effect; inactive means no such curve, though single readings can be large or run the other way; note: 0% is about no effect; nearly all actives have a fitted effect of over 55% in size; growth read by luminescence after 48 h
LASV entry inh: qHTS for Inhibitors of binding or entry into cells for Lassa Virus. Lassa virus pseudotype entry inhibition, cell reporter; control for the full effect not named in the record. hit rate 1.2% among 300,000. Potency, µM (highest dose often 37.9 µM), for the others: at the top dose activity change, negative = inhibition, actives largely listed as inhibitors; active means well fitted inhibition curve with a large enough effect; inconclusive means small, poorly fitted or top-dose-only effect, or effect the other way; inactive means flat fitted curve, though single readings scatter; tested in HEK293 cells; note: % is set by controls: 0 for no effect and ±100 for the full control effect; nearly all actives have a fitted effect of over 50% in size; luciferase read-out
Marburg entry inh: qHTS for inhibitors of binding or entry into cells for Marburg Virus. Marburg virus pseudotyped entry inhibition, cell reporter; control for the full effect not named in the record; about a third of the inactives were read at about 46 µM. Potency, µM (series often up to 37.8 µM), for the others: at the highest dose activity change, negative = inhibition, usual class: inhibitors. hit rate 1.8% among 300,000; active = well fitted inhibition curve with a large enough effect; inconclusive = small, poorly fitted or top-dose-only effect, or effect the other way; inactive = flat fitted curve, though single readings scatter; tested in HEK293 cells; about a fifth of its hits are not listed in these tables; note: % is set by controls: 0 for no effect and ±100 for the full control effect; luciferase read-out
RE007 growth inh: qHTS Assay for Inhibitors of the HIV-1 protein Vpr. hit rate 0.21% among 360,000. Potency, µM (highest dose often 92.2 µM), inactives show top-dose activity change, negative = less growth. S. pombe RE007 Vpr strain, BacTiter-Glo ATP luminescence, 24 h; control for the full effect not named in the record; active = well fitted falling curve with a large enough effect; inconclusive = small, poorly fitted or top-dose-only effect; inactive = no such curve, though single readings can be large or run the other way;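 note: % is set by controls: 0 for no effect and ±100 for the full control effect; nearly all actives have a fitted effect of over 50% in size; the assay follows cell death caused by Vpr and the record does not say whether a fall means rescue or toxicity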
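Fission yeast strain RE007, carrying one chromosomally integrated HIV-1 vpr copy, was seeded at OD 0.01 in PMG+AL medium with 23 nL pinned compound. After 24 h at 30 °C and 99% humidity, viability was read by BacTiter-Glo luminescence.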
Cruzain inh Det: qHTS Assay for Promiscuous and Specific Inhibitors of Cruzain (with detergent); Cruzipain (Trypanosoma cruzi), P25779; purified cruzain, Z-FR-AMC fluorescence, 0.01% Triton; hit rate 0.43% among 200,000; AID 1478, 2009; Potency, µM, for inactives: max response, negative = inhibition, hits mostly inhibitors;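 note: plate controls were neutral wells for no effect and buffer without enzyme for full effect; nearly all actives have a fitted effect of over 40% in size; top concentration of the series not given in the record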
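Z-FR-AMC hydrolysis (2 uM substrate) by cruzain (1.5 nM) monitored kinetically at ex 360/em 450 nm after 15 min room-temperature compound exposure; 0.01% Triton X-100, pH 5.5, 5 mM DTT.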
StopGo reporter: High Throughput Screening for Foot and Mouth Disease Virus Antivirals; human cells with a luciferase reporter of 2A StopGo recoding; control for the full effect not named in the record; Potency, µM (highest dose often 57.9 µM), inactives show at the top dose signal change, negative = less light; hit rate 1.2% among 410,000; active = well fitted falling curve with a large enough effect; inconclusive = small, poorly fitted or top-dose-only effect; inactive = no such curve, though single readings can be large or run the other way; tested in HEK293T cells; note: % is set by controls: 0 for no effect and ±100 for the full control effect; nearly all actives have a fitted effect of over 45% in size; luciferase light after 4 h
* marks the source's active call; other numbers are inactive results; ? = inconclusive; nt = not tested or not shown; & = joins results of further samples; [ ] = remark or other dose. Unless noted, calls come from the whole dose curve; as a rule, active = well fitted curve in the direction sought with a large enough effect; inconclusive = small, poorly fitted or top-dose-only effect, or another doubt; inactive = no such curve, though single readings can be large; an effect the other way counts as inactive or inconclusive. Potency is the fitted concentration of half-maximal effect.

SMILES	NS1 function inh	Cruzain noTriton	SARS PLP yeast	LASV entry inh	Marburg entry inh	RE007 growth inh	Cruzain inh Det	StopGo reporter
COc1cc2c(C(=O)N3CCN(C)CC3)c(C)oc2cc1Br	-8%	-6%	0%	-5%	2%	-1%	0.7%	-10%
CC1(C(=O)O)CCC(C(=O)Nc2ccc(OC(F)(F)Cl)cc2)C1(C)C (stereo not drawn)	-1%	nt	0%	nt	nt	7%	nt	-10%
Cc1nn(-c2ccccc2)c2c1C(O)n1c(nc3ccccc31)S2 (stereo not drawn)	3%	-17%	-10%	?	?	-5%	-3.2%	nt
CC(=O)c1ccc(N2Cc3ccccc3C2=NC(=O)c2cccs2)cc1	8%	-12%	-13%	7.9µM*	?	-11%	-5.6%	2%
Oc1c(Cl)cc(Cl)cc1/C=N/c1nccs1	-100%	-12%	-36%	-15%	3%	-20%	-3.5%	-22%
CC(=O)N1N=C(c2cccc(Cl)c2)OC1c1ccc(C(C)C)cc1 (stereo not drawn)	-1%	6%	1%	6%	22%	-19%[3.69 µM]	-9.4%	29%
COc1cccc(OCC(=O)O)c1	13%	nt	1%	-1%	22%[46.1 µM]	3%	nt	-2%
Cc1ccc(S(=O)(=O)N2CCN(C(=O)C(C)Cn3cncn3)CC2)cc1C (stereo not drawn)	4%	nt	0%	0%	28%	-2%	nt	7%
COc1cccc(C(=O)N2c3cc(C)ccc3OCC2C(C)(C)C)c1 (stereo not drawn)	6%	nt	1%	-8%[46.1 µM]	?	-20%	nt	?
Cc1cc2c(NCc3ccccc3)ncnc2s1	-33%	nt	-12%	9%[46.1 µM]	?	-4%	nt	?
COc1ccc(OC)c(NS(=O)(=O)c2ccc(N3CCCCS3(=O)=O)cc2)c1	nt	1%	nt	13%[46.1 µM]	nt	nt	-0.3%	-15%
COc1ccc(NC(=O)C2CCCN(C(=O)Nc3ccc(F)cc3)C2)cc1 (stereo not drawn)	-9%	nt	10%	1%	23%[46.1 µM]	-1%	nt	8%
Cn1cnc2cc(NC(=O)COc3ccccc3)ccc21	11%	nt	-1%	?	6%[46.1 µM]	3%	nt	35%[activator]
COc1ccc(-c2[nH]ncc2CN2CCN(c3ccc(F)cc3)CC2)cc1	1%	nt	0%	nt	nt	13%	nt	?
Cc1ccc(-c2nc(-c3ccncc3)no2)c(C)c1	-56%	nt	-7%	nt	nt	-7%	nt	30%[activator]
O=C(CSCc1c(F)cccc1Cl)NCc1cccnc1	8%	-12%	-6%	3%	8%	6%	0.0%	-2%
CCOC(=O)c1cccc(NC(=O)COc2nsnc2N2CCOCC2)c1	-16%	nt	-1%	nt	?	7%	nt	25µM*
CCSc1nnc(N2C(=O)C(O)=C(C(=O)c3ccco3)C2c2cccc(OC)c2)s1 (stereo not drawn)	7%	nt	-2%	nt	nt	2%	nt	0%
C=CCN1C(=O)C2C(C(=O)NC3CCCC3)C3(C)C=CC2(O3)C1C(=O)NC1CCCC1 (stereo not drawn)	9%	nt	-10%	1%	?	12%	nt	-9%
O=C(O)CCc1ccc(-c2ccccc2)n1NC(=O)c1sc2ccccc2c1Cl	12%	26%	-4%	13%	17%	-7%	-19%	-6%
CC(C)CC(=O)N1c2nc(C(C)C)nn2C2(CCCCC2)[C@@H]2CCCC[C@@H]21	nt	20%	nt	9%[46.1 µM]	13%[46.1 µM]	nt	0.3%	0%
CSC(=O)NC(=O)NC(=O)c1ccc([N+](=O)[O-])cc1	6%	nt	7%	nt	nt	-2%	nt	22%
O=C(Oc1cc(Cl)ccc1Cl)c1ccc(N2CCOCC2)c([N+](=O)[O-])c1	27%	-6%	-4%	-1%	13%	-19%	-6.6%	0%
COc1ccc2[nH]c3ccccc3c2c1	-67%	-5%	-17%	15%	?	-33%	-3.8%	1%
O=C(NCc1ccccc1)C(=O)Nc1cccc(C(=O)O)c1	5%	nt	0%	nt	nt	2%	nt	11µM*
SMILES	NS1 function inh	Cruzain noTriton	SARS PLP yeast	LASV entry inh	Marburg entry inh	RE007 growth inh	Cruzain inh Det	StopGo reporter
COc1ccc(N2CCN(C(=O)CCNS(=O)(=O)c3ccc(Br)s3)CC2)cc1	-54%	23%	-9%	-23%	1%&1%	-15%	-2.1%	-11%
CCOC(=O)C1C(C(=O)OC)=C(c2ccc(F)cc2)c2ccccc2N1S(=O)(=O)C(F)(F)F (stereo not drawn)	nt	23%	0%	nt	nt	-3%	-3.8%	-5%
CC1(C)C(=O)OC(c2cccn2-c2cccc([N+](=O)[O-])c2)C2(CCCCC2)C1=O (stereo not drawn)	-11%	-14%	-87%	nt	nt	nt	-4.3%	nt
CC(C)c1nc2c(c(=O)c3ccccc3n2C)c(=O)n1CCc1ccccc1	1%	nt	0%	?	?	-6%	nt	?
COc1cc(/C=N/NC(=O)NC23CC4CC(CC(C4)C2)C3)ccc1O	-1%	nt	-5%	-17%	-5%	20%	nt	-21%
CCCN(CCC)CCNC(=O)c1cc2c(=O)n(CC)c3ccccc3c2s1	4%	nt	0%	14%[46.1 µM]	?	-24%	nt	0%
Cc1ccc2nc(SCC(=O)Nc3ncccn3)[nH]c2c1	4%	nt	0%	nt	nt	-5%	nt	11%
COc1ccc(C)cc1N(CC(N)=O)S(=O)(=O)c1ccc(C)cc1	6%	-12%	0%	8%	-1%	10%	1.7%	23%
CC1=CC(=O)Nc2ccccc2S1	nt	nt	nt	?	5%	-3%	nt	20%
Cc1cccc(C)c1OCC(O)CNC(C)(C)C (stereo not drawn)	-5%	2%	-1%	-6%	16%	-17%	2.7%	8%
CC(=O)c1ccc(N2CCN(S(=O)(=O)c3ccc4c(c3)CC(C)N4C(=O)C3CC3)CC2)cc1 (stereo not drawn)	-4%	nt	6%	nt	nt	-6%	nt	?
Cc1[nH]n(-c2ccc(F)cc2)c(=O)c1C=Nc1ccc(S(=O)(=O)N(C)C)cc1	-1%	?	5%	-2%	20%	-20%	-6.1%	-2%
O=C(NCCN1CCNC1=O)C1CCC(=O)N(CCc2ccc(Cl)cc2)C1 (stereo not drawn)	-4%	nt	2%	nt	nt	3%	nt	31%
COC(=O)Cc1cnc(NC(=O)C2C3CCC(C3)C2C(=O)O)s1 (stereo not drawn)	2%	-9%	8%	-4%	20%	9%	3.9%	9%
O=C(NCCc1ccccc1)c1ccc(NS(=O)(=O)c2ccc3[nH]c(=O)[nH]c3c2)cc1	nt	nt	-1%	?	-4%	2%	nt	48%[activator]
O=C(c1cccc(F)c1)N1CCN(c2ccc([N+](=O)[O-])c(N3CCCCC3)c2)CC1	nt	-7%	-3%	-15%	-24%	-29%	-5.6%	-29%
CCOC(=O)C1(Cc2ccccc2)NC(c2ccccc2F)C2C(=O)N(CC)C(=O)C21 (stereo not drawn)	0%	?	6%	-10%	-11%[46.1 µM]	-8%	-2.4%	?
COc1cccc(NC(=O)c2ccc3nc(CCc4ccccc4)oc3c2)c1	nt	-6%	nt	-10%[46.1 µM]	nt	nt	-14%	-1%
COc1cc(OC)cc(C(=O)Nc2ccc3c(c2)n(C)c(=O)c(=O)n3C)c1	nt	-2%	nt	16%[46.1 µM]	nt	nt	-1.0%	-10%
O=C(c1ccc2nsnc2c1)N1CCN(c2ccc([N+](=O)[O-])cc2)CC1	-9%	nt	-11%	nt	nt	-5%	nt	?
COc1ccc(-n2c(=O)cc(N3CCN(c4ccccc4)CC3)[nH]c2=O)cc1	11%	-3%	-4%	2%	?	-13%	4.8%	-2%
Cc1cc(OCC(=O)N2CCC(C(=O)O)CC2)c2c3c(c(=O)oc2c1)CCCC3	4%	nt	-9%	nt	nt	0%	nt	-18%
CC1(C)CC(=O)C2=C(C1)NC(=O)CC2c1cc(F)ccc1F (stereo not drawn)	6%	3%	4%	1%	-7%[46.1 µM]	-2%	6.7%	-10%
N#Cc1ccc(Oc2ccc(S(=O)(=O)N3CCCC3)cn2)cc1	nt	nt	2%	-22%	-8%[46.1 µM]	?	nt	-27%
[O-]/[N+](=C\c1ccc(OC(F)F)cc1)c1ccccc1	-20%	-3%	-5%	11%	41%	2%	-0.2%	21%
SMILES	NS1 function inh	Cruzain noTriton	SARS PLP yeast	LASV entry inh	Marburg entry inh	RE007 growth inh	Cruzain inh Det	StopGo reporter
O=C(CCNc1ccc(Cl)cc1)c1cccs1	6%	-9%	3%	2%	?	?	-4.8%	24%
Cn1c(CSCc2ccc(Cl)cc2)nnc1SCC(=O)Nc1nc2ccccc2s1	-3%	?	5%	-10%	-8%	7%	6.5%	11%
CCOC(=O)CCN(Cc1cccs1)S(=O)(=O)c1ccc(F)cc1	-90%	0%	-14%	-29%	-17%	-3%	4.8%	-3%
CCn1c(=O)cc(OCC(=O)N2CCN(c3cccc(Cl)c3)CC2)c2ccccc21	nt	-2%	nt	16%[46.1 µM]	?	nt	-3.6%	-14%
CC1CC(=O)Nc2ccccc2N1S(=O)(=O)c1ccc(C(F)(F)F)cc1 (stereo not drawn)	2%	nt	-1%	4%	?	-7%	nt	-14%
Cc1cccc(Cn2cc(C(=O)c3ccccc3)c(=O)c3cc4c(cc32)OCO4)c1	nt	-13%	nt	2%[46.1 µM]	?	nt	-4.8%	-18%
Cc1ccc(CNC(=O)CN2C(=O)NC(C)(c3ccccc3Cl)C2=O)cc1 (stereo not drawn)	3%	nt	-2%	?	-27%[46.1 µM]	1%	nt	-3%
Cc1cc(C)c(C)c(C(=O)CSc2nnc(-c3ccc4[nH]c(C)c(C)c4c3)o2)c1C	9%	?	?	?	?	-5%	-0.7%	?
O=C(C1CCCN1C(=O)c1cccs1)N1CCc2ccccc21 (stereo not drawn)	-4%	-21%	3%	19%	-7%[46.1 µM]	19%	-2.2%	0%
CCCC1(c2ccccc2)NC(=O)N(CC(=O)NCC2COc3ccccc3O2)C1=O (stereo not drawn)	nt	nt	-1%	?	24%	-6%	nt	-28%
CCN(CC)Cc1nc2c(c(=O)[nH]1)C(CC)(CC)Cc1ccccc1-2	14%	nt	-3%	nt	nt	-1%	nt	-2%
